NPYLR7 agonist: agonists of mosquito NPYLR7 receptor, primary screen, cell-based, Aedes aegypti, calcium fluorescence, mosquito biting behavior; Aedes aegypti neuropeptide Y-like receptor 7 (NPYLR7); HEK293T NPYLR7/Galpha15, GCaMP6s calcium fluorescence; 0.15% of 270,000 active; AID 1259423, 2018; activation, % at 10 µM; in the data active = activation above about 40%;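 also: 0% = vehicle and 100% = reference agonist at the receptor; some compounds past the cut are filed as inactive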
NPYLR7 agonist max-min: further read-out of NPYLR7 agonist, marked with its call; activation, %; measured here: Max-Min RFU normalised activation; some inactives read as strong as hits;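 span of the calcium signal over five minutes; 0% = vehicle and 100% = native peptide agonist; compound fluorescence can raise it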
* = called active by the depositor; & = joins results of further samples. This is a subset; the hit share may differ from the screen's.

SMILES	NPYLR7 agonist	NPYLR7 agonist max-min
COc1ccc(CNC(=O)CCC2(Cc3ccc(Cl)cc3)CCC(=O)N2)cc1 (stereo not drawn)	3	-3
CNC(=O)NC1CCCN(c2ccccc2Cl)C1 (stereo not drawn)	7	5
CCOc1ccccc1-c1noc(CNCC2CN(C)CCO2)n1 (stereo not drawn)	7	4
COC(=O)c1ccc(OCC(=O)N2CCOC(C)C2)c(Br)c1 (stereo not drawn)	-6	-7
Cc1ccc(-c2coc3ccccc3c2=O)c2cccnc12	27	11
CCC(CC)C(=O)N1CCC(Cc2ccc3c(c2)OCO3)CC1	2	-1
O=C(CNC(=O)c1ccccc1)NCCN1C(=O)SC(=Cc2ccccc2F)C1=O	-18	-20
Cc1ccc(S(=O)(=O)c2ccc(N3CCC(C(=O)OCc4ccccc4)CC3)nn2)cc1	6	-8
O=C(NCc1cc(-c2ccc(F)cc2F)on1)C12CC3CC(CC(C3)C1)C2	0	0
O=c1[nH]nc(SCC2CSc3nnc(-c4ccncc4)n32)n1C1CC1 (stereo not drawn)	2	2
CCC(CC)NS(=O)(=O)c1ccc(C(N)=O)cc1	-1	-1
CC1Cc2c(NC(=O)c3cccs3)nn(C)c2NC1=O (stereo not drawn)	-16	-22

Some of the entries so far, with two lines to a compound.
Below each compound: NPYLR7 agonist, NPYLR7 agonist max-min
> COC(=O)c1ccc(OCC(=O)N2CCOC(C)C2)c(Br)c1 (stereo not drawn)
    -6, -7
> Cc1ccc(-c2coc3ccccc3c2=O)c2cccnc12
    27, 11
> CCC(CC)C(=O)N1CCC(Cc2ccc3c(c2)OCO3)CC1
    2, -1
> O=C(CNC(=O)c1ccccc1)NCCN1C(=O)SC(=Cc2ccccc2F)C1=O
    -18, -20

(more compounds)
SMILES	NPYLR7 agonist	NPYLR7 agonist max-min
Cc1cc(C)c2c(CC(=O)N3CC(c4ccncc4)C3)coc2c1C	1	-2
O=C1OC(c2ccccc2)=NC1=Cc1cc(Cl)c2c(c1)OCCO2	1	-4
Cc1ccc(-c2c(C)oc(C)c2C(=O)NC(Cc2ccccc2)c2ccccc2)cc1 (stereo not drawn)	1	-2
CSc1ccccc1NC(=O)CCC(=O)N1C[C@H]2CC[C@H]1C2	-8	-12
CN1C(=O)C2(CCN(C(=O)CCN3CCNCC3)CC2)c2ccccc21	-1	0
Cc1ccc2c(c1)c(C1CCN(C(=O)[C@H](OC=O)c3ccccc3)CC1)cn2C	17	22
CN1C(=O)CC(C(=O)Nc2nncs2)C1c1cccc(Cl)c1 (stereo not drawn)	4	0
COc1ccc(N2C(=O)c3ccccc3NC2c2ccc3c(c2)OCO3)cc1 (stereo not drawn)	-6	-9
Cc1c(C(=O)N2CCCC(C)C2)c(C(F)(F)F)nn1C1CCCN(C)C1 (stereo not drawn)	11	2
O=C(c1c[nH]c2cc(Cl)ccc2c1=O)N1CC[C@H](CO)[C@H](O)C1	10	-8
COCCOc1nc(-c2ccc(F)cc2)n(-c2ccc(NC(=O)CC(C)(C)C)cc2)n1	9	22
O=C(O)CCc1nnc(SCc2ccc(F)cc2)[nH]c1=O	11	4
CC(C)n1c(CNC(=O)c2ccccc2O)n[nH]c1=S	0	0
Cc1ccc2c(c1)c(=O)c(C(=O)N(C)Cc1nc3ccc(F)cc3[nH]1)cn2C	7	5
COc1ccc(S(=O)(=O)NC(=O)C2(C)CCN2C(=O)CC2CCCCC2)cc1OC (stereo not drawn)	1	-3
CCn1c(SCc2ccc(C(=O)NCc3ccc(F)cc3)cc2)nnc1-c1cccc(OC)c1	15	22
CCCC(=O)Nc1cc(-c2ccc(OCC)nn2)ccc1C	1	12
CCc1nc(N2CCN(C(=O)c3ccc(OC)cc3)CC2)c2c3c(sc2n1)CCCC3	-10	-1
CCc1nnc(C(C)NC2CCCCC2C)o1 (stereo not drawn)	5	6
C=C(Br)CN(C)Cc1nc(C(C)OC)no1 (stereo not drawn)	4	3
COc1ccc(CC2CN(C(=O)c3ccc4nc(C)[nH]c4c3)CCO2)cc1 (stereo not drawn)	7	2
Cc1ccc(-n2c(SCc3ccc(C(=O)NCc4ccc5c(c4)OCO5)cc3)nnc2-c2cccnc2)cc1	18	27
CN(C)c1ccc(C(=O)N2CCOC(COCc3ccccc3F)C2)cc1 (stereo not drawn)	-6	-8
COc1ccc(CNc2c[nH]c(=O)cc2C)cc1OCCCC#N	3	2
COC(=O)c1ccc(NC(=O)CCc2nc(-c3cccs3)no2)cc1	-9	-9
C=CC(=O)N1CCC(n2c(=O)oc3ccc(OC)cc32)CC1	3	10
C=C1CCC2OC(=O)C(C)=C2C2C1C13OC1(CC(C)C3=O)C1OC21C (stereo not drawn)	-7	-12
Cc1ccc(-n2ncc3c(=O)n(NC(=O)c4ccc(S(=O)(=O)N(C)C)cc4)cnc32)cc1C	3	2
Cc1n[nH]c(C)c1NC(NC(=O)c1ccco1)(C(F)(F)F)C(F)(F)F	2	-1
NC(=O)c1cnc2n1CCN(C(=O)c1ccc(C3CCCO3)s1)C2 (stereo not drawn)	-4&9	-7&2
CC(C)NC(=O)CSCc1ccc(OC(F)(F)F)cc1	12	8
COc1ccc(C(=O)N2CCN(c3cc(C)ccc3F)C(=O)C2C)cc1 (stereo not drawn)	-7	2
COc1ccc(-c2nnc3ccc(SCC(=O)Nc4nccs4)nn23)cc1OC	7	13
Cc1ccc(CNc2nc(N)c([N+](=O)[O-])c(N3CCCCC3)n2)cc1	-5	-5
Cc1nc(SC(F)F)c2c3c(sc2n1)CCCC3	-1	13
Cc1ccc(CCNC(=O)c2ccc(-n3nc(C)cc3C)cc2)cc1	4	8
O=C(CN1CCN(c2ccc(F)c(F)c2)C1=O)Nc1cccc2nsnc12	3	2
O=C(NOCc1ccccc1)C1CCN(S(=O)(=O)c2ccc(F)cc2)CC1	-19	-19
COc1cc(/C=N\NC(=O)CSc2nnc(-c3ccc(Cl)cc3)n2-c2ccccc2)ccc1O	-4	-7
O=C(C1CC2(CCNCC2)CN1)N1CC(n2cccn2)C1 (stereo not drawn)	17	5
COc1ccc(CCNC(=O)c2ccccc2N2CCC(NC(=O)c3ccc([N+](=O)[O-])cc3)CC2)cc1	-12	-9
CCc1ccc(S(=O)(=O)N2CCN(Cc3nnnn3-c3cccc(F)c3)CC2)s1	2	1
COc1ccc(C)cc1S(=O)(=O)N1CCC(c2nc(-c3ccccc3Cl)no2)CC1	-8	-10
COC(=O)c1cccc(NC(=S)N[C@H]2CO[C@H]3[C@@H]2OC[C@H]3OC(=O)NC2CCCCC2)c1	-9	-12
COC(=O)C(c1ccc(OC)cc1)C1C=CC(NC(=O)c2c(Cl)cc(Cl)cc2Cl)C1 (stereo not drawn)	6	4
Oc1ccc(C=NNc2ccc(C(F)(F)F)cn2)cc1	-9	-14
CCCN(C)c1cc(Cl)nc(SCc2ccc(C(=O)NCc3cccnc3)cc2)n1	11	22
CNc1nnc(SCc2csc(-c3ccc(C)o3)n2)s1	3	2
Cc1ccc(/C=C2/SC(=S)N(CCCC(=O)O)C2=O)cc1	0	-11
CC(C)c1nn(-c2ccccc2Cl)c(C(C)C)c1C(=O)NCc1ccco1	27	33
O=[N+]([O-])c1ccc2c(c1)CCN2	0	15
CCOc1ncccc1C(=O)N1CC[C@H](O)[C@@H](O)C1	19	16
Cc1cc(C)c2sc(N(CCN(C)C)C(=O)c3ccccc3[N+](=O)[O-])nc2c1	-9	-14
O=C(O)c1ccccc1CN1CCCN(Cc2ccccc2F)CC1	-4	-4
Cc1ccc(NC(=O)CSc2nc(=O)n(Cc3ccncc3)c3c2CCCC3)cc1	0	-1
Cc1ccc(-c2noc(-c3ccc(C)cc3)n2)cc1	4	10
O=C(CCC(=O)N1CCc2ccccc21)N1CCc2ccccc2C1	-6	-2
COc1ccc(CNC(=O)c2cc(Cl)cc(Cl)c2)cn1	-2	-2
COc1ccc(S(=O)(=O)N2CCC(Cc3ccccc3)CC2)cc1N1CCN(C(=O)c2cc(F)cc(C(F)(F)F)c2)CC1	3	1
CCC(C(=O)N1CCN(C(C(=O)Nc2ccc(C(C)C)cc2)C2CCCC2)CC1)c1ccccc1 (stereo not drawn)	-1	2

Carrying on:
SMILES	NPYLR7 agonist	NPYLR7 agonist max-min
CSc1cccc(NC(=O)CN2C(=O)c3cccc4cccc2c34)c1	-8	6
O=S(=O)(NC1CCCCC1)c1ccc(Cl)s1	-1	-1
COC(=O)C1=C(C)NC(=O)NC1c1ccco1 (stereo not drawn)	-1	-7
COC(=O)CCC(=O)N1CCN(c2nc3cc(C)c(C)cc3nc2-c2ccccc2)CC1	6	2
c1cc2nnnn2nc1NCC1(N2CCOCC2)CCSC1 (stereo not drawn)	0	17
Cc1cc(C)c2c(=O)n(CC(=O)Nc3cccc(C#N)c3)n(C)c2n1	6	5
O=C(Cn1cnc(-c2ccccc2)cc1=O)N1CCOCC1	10	1
O=C(C1CC1)N(c1ccc(Cl)cc1)C1C=CS(=O)(=O)C1 (stereo not drawn)	7	6
CCCc1cc(CN(C)C(=O)CC2(c3ccccc3)CC(=O)N(Cc3cccs3)C2=O)[nH]n1 (stereo not drawn)	32	25
CC(c1ccc(-c2nccn2Cc2ccco2)cc1)N(C)C (stereo not drawn)	9	-2
Cc1nc2ccccc2nc1N1CCN(C(=O)C(C)C)CC1	25	26
O=C(O)C1c2ccccc2C(=O)N(Cc2ccccc2)C12CCCC2 (stereo not drawn)	26	12

A portion of the results above:
SMILES	NPYLR7 agonist	NPYLR7 agonist max-min
COc1ccc(CNC(=O)CCC2(Cc3ccc(Cl)cc3)CCC(=O)N2)cc1 (stereo not drawn)	3	-3
CNC(=O)NC1CCCN(c2ccccc2Cl)C1 (stereo not drawn)	7	5

(more compounds)
SMILES	NPYLR7 agonist	NPYLR7 agonist max-min
COc1ccc(NC(=O)N2CCN3CCN(C)CC3C2)cc1Cl (stereo not drawn)	-2	0
O=C(Nc1ccc2n(c1=O)C[C@H]1C[C@@H]2CN(C(=O)c2ccccc2)C1)c1ccc(-c2ccccc2)cc1	-8	-16
CC1COCC(C)N1C(=O)C1SCCc2sccc21 (stereo not drawn)	0	-2
Cc1onc(-c2ccccc2)c1C(=O)N1CCC(c2nc(-c3ccc(C(F)(F)F)cc3)no2)CC1	16	11
COc1cc(C(=S)N2CCOCC2)cc(OC)c1OC(=O)CCc1ccccc1	-6	-6
COCCOc1nc(-c2ccccc2F)n(-c2ccc(NC(=O)c3ccc([N+](=O)[O-])cc3)cc2)n1	15	29
CCN(CC)C(=O)CSc1nc2c(-c3ccccc3)c[nH]c2c(=O)n1C	-2	-4
CCOC(=O)c1nn(-c2ccc(C)cc2)c(=O)cc1N1CCN(c2cccc(C(F)(F)F)c2)CC1	7	5
COc1cc(-c2nc(C=Nc3ccc(I)cc3C)c(O)o2)cc(OC)c1OC	-1	-7
Cc1ccc(F)c(OCCCS(C)(=O)=O)c1	-3	-4
O=C(Cn1c(=O)oc2ccccc21)N1CCN(Cc2ccc(Cl)s2)CC1	-4	-7
O=C(COCc1ccccc1)N(CC(=O)N1CCc2sccc2C1c1ccc(Cl)cc1Cl)Cc1ccco1 (stereo not drawn)	-6	-1

An excerpt from above in order of length of the SMILES, ascending.
SMILES	NPYLR7 agonist	NPYLR7 agonist max-min
Cc1ccc(F)c(OCCCS(C)(=O)=O)c1	-3	-4
COc1ccc(NC(=O)N2CCN3CCN(C)CC3C2)cc1Cl (stereo not drawn)	-2	0
COc1cc(C(=S)N2CCOCC2)cc(OC)c1OC(=O)CCc1ccccc1	-6	-6
CCN(CC)C(=O)CSc1nc2c(-c3ccccc3)c[nH]c2c(=O)n1C	-2	-4
O=C(COCc1ccccc1)N(CC(=O)N1CCc2sccc2C1c1ccc(Cl)cc1Cl)Cc1ccco1 (stereo not drawn)	-6	-1
Cc1onc(-c2ccccc2)c1C(=O)N1CCC(c2nc(-c3ccc(C(F)(F)F)cc3)no2)CC1	16	11
O=C(Nc1ccc2n(c1=O)C[C@H]1C[C@@H]2CN(C(=O)c2ccccc2)C1)c1ccc(-c2ccccc2)cc1	-8	-16

(next part)
SMILES	NPYLR7 agonist	NPYLR7 agonist max-min
Nc1ccc(-c2cc(NC3CCCC3)nc3[nH]ccc23)nc1	4	3
COc1cccc(C(=O)Nc2c(-c3cccc(Cl)c3)nc3ccc(C)cn23)c1	-4	1
O=C(NCc1ccc(F)cc1)c1cc(-c2ccccc2Cl)nc2ccccc12	4	-7
COc1ccccc1NC(=O)N(CC(=O)Nc1cc(C(C)(C)C)nn1-c1ccccc1Cl)Cc1ccccc1	-5	0
COc1ccc(S(=O)(=O)NCC(C)C)c2ccccc12	0	-2
CC(C)(C)N=C1NN=C(c2ccc(Cl)c(Cl)c2)CS1	0	3
CC(C)c1ccccc1NC(=O)c1ccc(-n2nc(-c3cccc(C(F)(F)F)c3)cc2N)cc1	0	-5
CSc1ccccc1NC(=O)C1(C)CCN1C(=O)Cc1ccc(C(C)C)cc1 (stereo not drawn)	-3	-3
CCC(C)N(Cc1c(-c2ccc(F)cc2)noc1N1CCOCC1)C(=O)Nc1ccc(C)cc1 (stereo not drawn)	-7	-4
CCNC(=O)C1(C)CCN(CCOc2ccccc2)C1 (stereo not drawn)	0	-2
CCCc1nc(COc2ccc(CO)nc2)cs1	4	2
Cc1nc2sc(C)c(C)n2c(=O)c1NC(=O)c1cccnc1	7	3
C=CCNC(=O)CC1(CC(=O)Nc2nccs2)CCCCC1	7	2

Compound profiles, from the list above:
Listed for `COc1ccc(CC2CN(C(=O)c3ccc4nc(C)[nH]c4c3)CCO2)cc1` (stereo not drawn) → NPYLR7 agonist = 7; NPYLR7 agonist max-min = 2
Listed for `CCC(CC)NS(=O)(=O)c1ccc(C(N)=O)cc1` → NPYLR7 agonist = -1; NPYLR7 agonist max-min = -1
